# Screening results from PubChem BioAssay.
# B2AR ag – agonists of human beta-2 adrenergic receptor inducing internalization; P07550; Am2.2-beta2AR cells, FAP receptor internalization, flow cytometry; reference of the scale not given here; response, % (test concentration not listed); hit rate 0.43% among 340,000; AID 504454;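 active means response above a set limit, near 3 SD of response in nonfluorescent compounds, cut at about 42% in these data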;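 further: stock transfer was 100 nL into about 11 µL; a reference agonist was the positive control; negative values mostly stem from fluorescent compounds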
# T cruzi repl – blocks replication of Trypanosoma cruzi | T. cruzi beta-gal in NIH3T3, luminescence, 90 h | hit rate 1.4% among 300,000 | inhibition, % (concentration not given with the values);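 active means mean inhibition across valid replicates above about 55%, limit read from the data; inconclusive means mean below that limit but half or more replicates reach it; inactive means mean below it, under half of replicates reach it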;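 further: signal also drops with host cell toxicity which is not excluded here; 0% = plate median of DMSO wells and 100% = zero luminescence signal; higher percent means less beta-gal luminescence so fewer parasites; stock transfer was 50 nL into about 50 µL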
# UCH37 DUB inh – inhibitors of human deubiquitinating enzyme UCH37 | purified proteasome/UCH37, Ub-AMC cleavage fluorescence | hit rate 0.33% among 330,000 | Q9Y5K5 | inhibition, % (test concentration not listed);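 active means mean of two replicates above 20%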;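 further: 0% = compound-free wells with enzyme and 100% = wells lacking proteasome; stock transfer was 100 nL into about 20 µL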
#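 Material: Human UCH37 enzyme supplied as purified proteasome complex | Schedule: 30 min compound-proteasome preincubation then 25 min substrate reaction, room temperature | Detection: AMC fluorescence from Ub-AMC cleavage, excitation 355 nm, emission 460 nm | Benchmarks: Wells without proteasome as full block, compound-free enzyme plus substrate as uninhibited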
# LANA-H2B inh – blocks KSHV LANA binding to histone H2A/H2B. Q9QR71. AID 2629. hit rate 0.6% among 320,000. inhibition, % (concentration not given with the values). cell-free LANA-H2A/H2B peptide, fluorescence polarization; in the data active means inhibition mostly above about 10%, no sharp cut-off; inactive means mostly below about 6.7%;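 further: stock transfer was 7.5 nL into about 10 µL; 0% = median of vehicle wells and 100% = median of positive control wells; one replicate is shown; the record names a cut of 25% in any replicate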
# Target sequence (Q9QR71 whole entry, looked up): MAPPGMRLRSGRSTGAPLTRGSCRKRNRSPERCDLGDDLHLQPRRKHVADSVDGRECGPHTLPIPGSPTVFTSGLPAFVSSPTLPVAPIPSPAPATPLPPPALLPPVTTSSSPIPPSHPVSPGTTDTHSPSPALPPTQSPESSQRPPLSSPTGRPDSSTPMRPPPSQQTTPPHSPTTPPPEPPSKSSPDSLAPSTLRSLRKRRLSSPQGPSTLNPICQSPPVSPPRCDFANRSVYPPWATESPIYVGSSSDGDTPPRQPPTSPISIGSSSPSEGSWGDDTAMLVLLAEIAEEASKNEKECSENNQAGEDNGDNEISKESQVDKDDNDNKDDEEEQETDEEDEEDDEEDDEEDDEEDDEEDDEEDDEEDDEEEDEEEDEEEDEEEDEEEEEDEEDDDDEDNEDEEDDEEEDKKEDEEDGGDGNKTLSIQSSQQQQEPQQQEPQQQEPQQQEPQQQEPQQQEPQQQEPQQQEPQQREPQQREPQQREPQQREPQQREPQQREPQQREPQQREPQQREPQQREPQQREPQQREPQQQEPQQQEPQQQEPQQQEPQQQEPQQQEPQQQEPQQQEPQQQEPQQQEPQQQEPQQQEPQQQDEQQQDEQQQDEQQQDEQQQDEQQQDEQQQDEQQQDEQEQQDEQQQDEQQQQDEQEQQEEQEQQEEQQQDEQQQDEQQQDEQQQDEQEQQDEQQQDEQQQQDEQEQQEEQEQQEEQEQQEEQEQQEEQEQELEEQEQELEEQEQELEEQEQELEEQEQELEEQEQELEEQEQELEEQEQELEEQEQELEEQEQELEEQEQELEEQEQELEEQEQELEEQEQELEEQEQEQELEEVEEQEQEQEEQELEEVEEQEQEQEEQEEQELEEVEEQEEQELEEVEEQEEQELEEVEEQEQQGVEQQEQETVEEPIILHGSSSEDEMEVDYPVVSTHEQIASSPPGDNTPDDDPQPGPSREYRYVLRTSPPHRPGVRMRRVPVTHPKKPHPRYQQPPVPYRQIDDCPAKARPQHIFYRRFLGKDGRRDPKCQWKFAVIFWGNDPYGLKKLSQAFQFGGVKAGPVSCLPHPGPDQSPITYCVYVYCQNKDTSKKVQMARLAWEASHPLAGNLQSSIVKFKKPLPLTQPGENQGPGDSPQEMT
# RanGTP-Impb inh – inhibitors of RanGTP-importin-beta interaction, primary screen, biochemical, FRET, CFP-Ran, YFP-importin-beta, homogeneous | cell-free CFP-Ran/YFP-importin-beta FRET ratio | inhibition, % (concentration not given with the values) | hit rate 1.1% among 300,000;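 active means most replicates above 15%; inconclusive means exactly half above 15%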;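 further: 0% = DMSO wells and 100% = Ran loaded with GDP instead of GTP; wells of about 40 µL received 100 nL stock; the first replicate is given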
# Beta apoptosis – blocks beta cell apoptosis; INS-1E cytokine-induced death, ATP luminescence, 48 h; percent of positive-control rescue, neutral wells zero; protection from apoptosis, % (no concentration beside the values); hit rate 0.8% among 300,000; AID 435005;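 active means all replicates at 75% or more, or half of them and the mean; inconclusive means half reach 75% but not the mean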;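 further: 0% = cytokine-treated negative control wells and 100% = positive control rescue; higher means more ATP so stronger rescue from cytokine killing; wells of about 40 µL received 100 nL stock; the first replicate is given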
# Calb FLC – C. albicans growth modulation with fluconazole; AID 1979; growth inhibition, % (test concentration not listed); C. albicans CaCi-2 (fluconazole-resistant clinical isolate) + fluconazole, Alamar Blue growth, 48 h; hit rate 0.57% among 300,000;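 active means most replicates above 75%; inconclusive means exactly half above 75%; inactive means most below 75%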;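 further: all wells also contain fluconazole at 8 µg/ml as a sub-toxic cotreatment; 0% = median of DMSO wells and 100% = median of geldanamycin control wells; wells of about 8 µL received 7.5 nL stock; the first replicate is given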
# Bfl-1 A1 inh – inhibitors of the anti-apoptotic protein A1, read as caspase activation. MEF A1-2A-BIM cells, Caspase-Glo 3/7 luminescence, 3 h; percent of clofoctol response, vehicle zero. caspase activation, % (no concentration beside the values). hit rate 0.066% among 330,000. AID 2462;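 active means over half of replicate activation scores above 10%, or exactly half above 10 with the replicate mean above 10; inconclusive means replicate mean below 10 yet half the replicates above 10; inactive means over half of replicates below 10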;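 further: wells of about 30 µL received 50 nL stock; many hits fall short of the cut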
# * = called active by the depositor; u = inconclusive; x = no result given.
# The first 6 compounds as a preview:
SMILES,B2AR ag,T cruzi repl,UCH37 DUB inh,LANA-H2B inh,RanGTP-Impb inh,Beta apoptosis,Calb FLC,Bfl-1 A1 inh
CCc1ccc(OCC(=O)O/N=C(\N)c2cccnc2)cc1,-12.8,0.8,3.7,-1.8,22.5,-0.8,4.8,-0.3
COCOc1ccc(-c2cc(=O)c3c(O)cc(OCOC)cc3o2)cc1,-13.5,-12.3,4.3,5.4,3.0,2.0,1.0,-2.2
COc1cccc(N2[C@@H](CC(=O)O)c3cc(C(F)(F)F)ccc3S2(=O)=O)c1,3.3,-9.6,0.3,-0.3,-3.8,5.3,-5.2,0.3
O=C(c1ccc(Cl)cc1)c1ccccc1C(=O)N1CCOCC1,-9.1,-32.3,5.4,-1.5,1.0,x,6.7,0.2
Cc1ccc(/C=C/C(=O)N2CCCN(C(=O)/C=C/c3ccc(C)cc3)CC2)cc1,-16.6,-12.0,4.2,-1.6,-2.1,7.3,-7.1,-0.2
Cc1ccc(Nc2nc3c(c(=O)[nH]2)CCCC3)cc1,6.8,-6.7,3.9,0.4,-1.0,5.9,3.2,-0.6

# The listing, repeating the preview:
SMILES,B2AR ag,T cruzi repl,UCH37 DUB inh,LANA-H2B inh,RanGTP-Impb inh,Beta apoptosis,Calb FLC,Bfl-1 A1 inh
CCc1ccc(OCC(=O)O/N=C(\N)c2cccnc2)cc1,-12.8,0.8,3.7,-1.8,22.5,-0.8,4.8,-0.3
COCOc1ccc(-c2cc(=O)c3c(O)cc(OCOC)cc3o2)cc1,-13.5,-12.3,4.3,5.4,3.0,2.0,1.0,-2.2
COc1cccc(N2[C@@H](CC(=O)O)c3cc(C(F)(F)F)ccc3S2(=O)=O)c1,3.3,-9.6,0.3,-0.3,-3.8,5.3,-5.2,0.3
O=C(c1ccc(Cl)cc1)c1ccccc1C(=O)N1CCOCC1,-9.1,-32.3,5.4,-1.5,1.0,x,6.7,0.2
Cc1ccc(/C=C/C(=O)N2CCCN(C(=O)/C=C/c3ccc(C)cc3)CC2)cc1,-16.6,-12.0,4.2,-1.6,-2.1,7.3,-7.1,-0.2
Cc1ccc(Nc2nc3c(c(=O)[nH]2)CCCC3)cc1,6.8,-6.7,3.9,0.4,-1.0,5.9,3.2,-0.6
CCN(CC)CCn1c(NC(=O)c2ccc(Cl)cc2)nc2ccccc21,-10.6,41.5,-75.2,-2.0,0.5,19.2,-31.5,-0.4
O=C(Nc1ccccc1N1CCOCC1)c1cccc(Oc2ccccc2)c1,-0.8,23.5,-1.6,2.7,9.9,-1.3,1.1,-0.2
CS(=O)(=O)N(CC(=O)O)Cc1cccc(CN(CC(=O)O)S(C)(=O)=O)c1,4.8,0.6,3.2,-4.0,2.0,-0.1,12.6,-1.3
CSCCCNC(=S)Nc1ccc(N2CCOCC2)cc1N1CCOCC1,4.7,-2.6,-0.9,-7.0,8.8,-5.4,3.2,-0.6
CCOC(=O)C1=C(C)N(c2ccccc2)C(=O)/C1=C\c1ccc(O)c(OC)c1,2.2,-23.5,2.2,-0.6,3.2,3.6,1.8,-0.4
Cc1cnc(C)c(N2CCN(Cc3cn(C)nc3-c3cccc(Cl)c3)CC2)n1,-1.6,-18.6,-6.9,2.4,-4.2,-1.4,4.8,-0.2
COc1ccccc1CNC(=O)C(NC(=O)C1CCCCC1)C(C)C (stereo not given),0.4,-7.9,0.2,0.2,-1.2,-6.4,-0.5,0.4
Cc1cc([N+](=O)[O-])nn1CCC(=O)NC1CCCCCC1,-2.8,-14.5,4.8,1.8,0.1,-2.7,-11.6,0.7
Cc1ccc(C)c(C(=O)CN2C(=O)c3ccccc3S2(=O)=O)c1,4.7,-4.0,4.9,-3.3,-1.5,-5.4,5.8,-0.8
CCn1c(=O)c2ccccc2n(Cc2ccc([N+](=O)[O-])cc2)c1=O,6.0,6.2,1.5,-0.8,3.4,4.1,32.9,-1.0
CCN(C[C@H]1N[C@@](C)(C(=O)OC)[C@H]2C(=O)N(C)C(=O)[C@@H]12)C(=O)Nc1ccc(Cl)cc1,-0.9,x,3.1,3.4,x,-5.3,x,-0.8
COc1ccc(Nc2ncnc3c2c(C)c(C)n3CCCN(C)C)cc1,-3.8,43.7,5.3,-3.5,1.1,-6.4,-11.9,-1.2
O=C(OCCC1Oc2cccnc2NC1=O)c1ccc(Cl)cc1 (stereo not given),2.6,12.1,1.0,0.7,-2.0,-2.0,23.3,1.5
CCc1ccc(N2CC(C(=O)OC)CC2=O)cc1 (stereo not given),-0.5,-3.1,2.3,2.5,4.5,-3.8,-23.1,0.1
C#CCOCCOCCOCCNc1nc(N2CCN(C(=O)[C@H](CCCCN)n3cc([C@@H](N)C(C)CC)nn3)CC2)nc(N2CCN(C(=O)[C@H](Cc3cc4ccccc4[nH]3)n3cc([C@@H](N)C(C)CC)nn3)CC2)n1 (stereo not given in full),5.0,x,1.8,-14.0,x,-10.8,x,1.2
COc1ccc(/C(O)=C2/C(=O)C(=O)N(c3ccccn3)C2c2ccc(F)cc2)cc1 (stereo not given),13.6,-1.0,9.8,6.0,-3.1,-2.4,5.0,-3.8
O=[N+]([O-])c1ccccc1Nc1cccnc1,-17.9,-8.4,3.0,-4.6,0.6,-9.0,-0.9,-0.1
COc1ccc(C(=O)NC2CCCc3ccccc32)c(OC)c1OC (stereo not given),-3.2,4.4,4.1,-2.5,3.1,1.8,18.7,1.1
CN(Cc1ccccc1)C(=O)c1ncn(Cc2ccccc2)c1C(=O)N(C)Cc1ccccc1,-6.5,x,0.9,3.7,x,-6.1,x,-1.4
CSc1nnc2c3c4c(sc3nc(-n3nc(C)cc3C)n12)COC(C)(C)C4,0.8,10.4,3.7,x,2.1,x,0.6,x
OCCCC1CCCN(Cc2cn[nH]c2-c2ccc(F)cc2F)C1 (stereo not given),6.1,-11.4,-0.5,-1.0,-0.4,-7.0,-8.9,-0.4
c1ccc2c(c1)Cn1nnnc1-2,-0.7,-12.5,1.6,-0.3,8.4,0.3,4.5,1.9
Cc1ccc(-c2nc3ccc(Cl)cc3n2OC(C)C(=O)O)cc1 (stereo not given),4.0,-0.4,-0.7,1.6,-1.0,2.7,15.9,0.4
Cc1ccc(-c2cc(C(=O)N3N=C(C(F)F)CC3(O)C(F)F)c3ccccc3n2)cc1C (stereo not given),8.4,63.6*,-18.0,1.8,3.2,7.5,5.8,-0.3
O=C(c1ccccc1Cl)N(Cc1ccccc1F)N1C(=O)CCCC1=O,-3.0,-0.7,3.7,1.2,-0.5,0.7,7.5,0.9
COC(=O)C1CCN(S(=O)(=O)Cc2ccccc2Cl)CC1,9.8,-12.2,1.3,2.0,7.2,-5.4,14.5,0.8
CCOc1cccc(-c2nc3c(s2)CCc2onc(-c4cccc([N+](=O)[O-])c4)c2-3)c1,-1.4,4.4,4.8,2.5,5.6,10.7,0.5,-0.3
O=C(c1csc2ccccc12)N1CCCCCC1,8.3,9.7,1.8,3.0,-5.1,x,-1.4,-0.3
NS(=O)(=O)c1ccc(NC(=S)N2CCN(C(=O)C3CCCO3)CC2)cc1 (stereo not given),-1.8,-5.9,5.9,2.3,-3.0,-3.7,-2.0,-0.4
Nn1cnnc1N/N=C/c1ccc(Cl)cc1Cl,-0.3,-20.0,x,-0.9,0.4,-10.5,2.2,-0.2
CC(=O)N1N=C(c2ccco2)CC1c1cc2cc(C)ccc2nc1Cl (stereo not given),-20.8,-6.6,6.8,-1.1,0.8,-6.3,-1.9,-0.2
N#Cc1ccccc1OCC(=O)C1CC1,-1.8,1.8,-3.4,-0.8,4.6,x,1.3,1.0
Oc1ccc(/C=N/Nc2nccnc2Cl)cc1,-8.9,0.3,x,-4.5,2.2,23.3,19.5,-8.4
CCSc1nc(O)c(CC)c(=O)n1C(C)CC (stereo not given),6.3,x,3.5,-0.3,1.1,-4.4,28.4,0.8
O=c1c2ccccc2c2ccccc2c(=O)n1Cc1cccnc1,-2.0,-17.6,4.1,-1.0,-1.1,-6.1,3.6,0.6
CN1CCC(CN)(N2CCN(c3ccccc3)CC2)CC1,14.2,-54.2,2.7,-10.7,1.5,x,7.6,0.4
COCCN=C1NC(=O)C(CC(=O)Nc2cccc(Cl)c2C)S1 (stereo not given),-3.0,-9.2,-1.2,-0.1,1.7,-1.1,-9.0,0.5
CCOC(=O)Cc1cc(=O)n2[nH]c(C)cc2n1,-5.0,-18.3,0.2,0.3,-2.6,-0.2,9.4,0.7
CCc1n[nH]c(=S)n1N=C1CCC(C)CC1 (stereo not given),9.2,2.9,3.8,-0.5,-1.6,5.8,0.0,-0.1
COc1ccccc1-c1c(NC(=O)C(C)C)n(C)c2ccccc2c1=O,3.1,-8.2,-33.7,-8.1,4.8,-6.5,-0.9,0.6
Cc1cc2ncn(S(=O)(=O)N(C)C)c2cc1C,-5.3,-27.6,2.9,2.8,2.6,-9.5,14.7,0.4
CCCN(CCC)c1ccc(/C=N/NC(=O)CN2CCOCC2)cc1,0.5,4.3,x,-0.5,6.1,-8.7,-4.6,-0.4
O=S(=O)(NC(=NCc1ccccc1)c1ccccc1)c1ccccc1,3.3,-9.9,4.4,-1.9,-0.7,-0.4,-8.0,0.1
COc1cc(NS(=O)(=O)c2ccc3c(c2)C(C)(C)C(=O)N3C)cc(OC)c1,4.0,-20.6,3.0,-0.3,3.5,2.4,5.2,0.0

# Going on with the list:
SMILES,B2AR ag,T cruzi repl,UCH37 DUB inh,LANA-H2B inh,RanGTP-Impb inh,Beta apoptosis,Calb FLC,Bfl-1 A1 inh
CCOc1ccc(NC(=O)CC2C(=O)N(CC)C(=S)N2CCNC(C)=O)cc1 (stereo not given),-10.7,-7.9,1.0,-3.0,3.3,2.5,-18.6,1.9
CCc1ccc(-c2csc3ncn(Cc4ccc(C(=O)O)cc4)c(=O)c23)cc1,-4.5,-1.2,1.5,-7.4,0.9,2.1,65.0,-0.5
COc1ccc(CNC(=O)Cn2cnc3c(SC)nc(N)nc32)cc1,5.4,x,5.9,8.5,x,0.1,x,-0.5
Cc1c(Cl)cccc1NC(=O)CNCc1ccccc1F,-18.6,-13.9,2.3,-0.9,3.6,-4.7,-13.6,0.7
CC(C)C(=O)N1CCC(CN=CC2=C(O)CC(C)(C)CC2=O)CC1,4.2,-7.9,4.6,4.0,-0.2,-6.4,-5.9,-0.2
CC(C)CNC(=O)[C@H](Cc1ccccc1)NC(=O)c1ccco1,5.6,0.0,-2.1,0.2,-0.9,5.4,-6.2,0.3
Clc1ccc(-c2nnc(-c3ccccc3)c(-c3ccccc3)n2)cc1,-0.9,24.2,4.3,3.0,-1.1,2.8,-26.9,0.4
COc1ccc(CNc2cc(C)nc3ncnn23)c(OC)c1,-4.7,-36.4,4.1,5.3,u,41.2,2.5,-0.2
